Calb FLC: C. albicans growth inhibition with fluconazole, primary screen, CaCi-2 strain, Alamar Blue fluorescence; C. albicans CaCi-2 (fluconazole-resistant clinical isolate) + fluconazole, 48 h; growth inhibition, % (test concentration not listed); 0.57% of 300,000 active; AID 1979, 2009;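 active = most replicates above 75%; inconclusive = exactly half above 75%; inactive = most below 75%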;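 also: all wells also contain fluconazole at 8 µg/ml as a sub-toxic cotreatment; 0% = median of DMSO wells and 100% = median of geldanamycin control wells; wells of about 8 µL received 7.5 nL stock; the first replicate is given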
Vif TR-FRET: inhibitors of Vif binding to APOBEC3G peptide, primary screen, biochemical, TR-FRET, GST-Vif 1-94, biotin-A3G peptide, dose response retest (AID 1117319); Virion infectivity factor (Human immunodeficiency virus type 1 group M subtype B (isolate …; TR-FRET GST-Vif / biotin-A3G peptide binding; higher % means a stronger effect; test concentration not given here; strong numbers were not always called active; inhibition, %, or IC50 in µM where a hit was titrated; 0.57% of 260,000 active;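 active = above the screen mean plus three standard deviations and confirmed in dose response; inconclusive = results disagree or hit not tested in dose response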;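 also: Vif residues 1-94 fused to GST binding biotinylated APOBEC3G peptide 110-148; 0% = full assay without inhibitor and 100% = GST in place of GST-Vif; retest series ran down from 100 µM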
T cruzi inh: inhibitors of intracellular T. cruzi growth, primary screen, luminescence, NIH3T3 host cells | T. cruzi beta-gal in NIH3T3, 90 h | 1.4% of 300,000 active | inhibition, % (no concentration beside the values);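 active = mean inhibition across valid replicates above about 55%, limit read from the data; inconclusive = mean below that limit but half or more replicates reach it; inactive = mean below it, under half of replicates reach it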;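 also: signal also drops with host cell toxicity which is not excluded here; 0% = plate median of DMSO wells and 100% = zero luminescence signal; higher percent means less beta-gal luminescence so fewer parasites; stock transfer was 50 nL into about 50 µL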
A1 inh: caspase 3/7 activation in MEF A1-2A-BIM cells, primary screen, A1 inhibitor project, cell-based, luminescence, HTS; AID 2462, 2010; caspase activation, % (no concentration beside the values); 0.066% of 330,000 active; Caspase-Glo 3/7 luminescence, 3 h; percent of clofoctol response, vehicle zero;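 active = over half of replicate activation scores above 10%, or exactly half above 10 with the replicate mean above 10; inconclusive = replicate mean below 10 yet half the replicates above 10; inactive = over half of replicates below 10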;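 also: wells of about 30 µL received 50 nL stock; many hits fall short of the cut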
RanGTP-Impb inh: inhibitors of RanGTP-importin-beta interaction, primary screen, biochemical, FRET, CFP-Ran, YFP-importin-beta, homogeneous | Ran GTPase (GTP-bound) - importin-beta complex | cell-free CFP-Ran/YFP-importin-beta FRET ratio | inhibition, % (test concentration not listed) | 1.1% of 300,000 active | AID 2216, 2009;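 active = most replicates above 15%; inconclusive = exactly half above 15%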;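 also: 0% = DMSO wells and 100% = Ran loaded with GDP instead of GTP; wells of about 40 µL received 100 nL stock; the first replicate is given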
Beta apoptosis: inhibitors of cytokine-induced beta cell apoptosis, primary screen, luminescence. INS-1E cytokine-induced death, ATP luminescence, 48 h; percent of positive-control rescue, neutral wells zero. protection from apoptosis, % (concentration not given with the values). 0.8% of 300,000 active. AID 435005, 2010;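 active = all replicates at 75% or more, or half of them and the mean; inconclusive = half reach 75% but not the mean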;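 also: 0% = cytokine-treated negative control wells and 100% = positive control rescue; higher means more ATP so stronger rescue from cytokine killing; wells of about 40 µL received 100 nL stock; the first replicate is given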
AF4-AF9 inh: inhibitors of AF4 peptide binding to AF9, primary screen, biochemical, AlphaScreen, biotin-AF4 peptide, FLAG-AF9, single point; inhibition, % at 10 µM; 0.47% of 350,000 active;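 active = every replicate reaching a set inhibition limit, whatever the replicate mean, cut at about 25% in these data; inconclusive = mean inhibition reaches that limit but some replicates miss it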;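 also: 0% = plate neutral control median and 100% = total signal loss; the record names both 10 and 1 µM as test concentration; the first replicate is given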
LANA-H2A inh: blockers of LANA interaction with H2A/H2B – biochemical, FP readout, HTS, primary screen; inhibition, % (concentration not given with the values); 0.6% of 320,000 active; cell-free LANA-H2A/H2B peptide, fluorescence polarization; in the data active = inhibition mostly above about 10%, no sharp cut-off; inactive = mostly below about 6.7%;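 also: stock transfer was 7.5 nL into about 10 µL; 0% = median of vehicle wells and 100% = median of positive control wells; one replicate is shown; the record names a cut of 25% in any replicate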
Target sequence (Q9QR71 whole entry, looked up): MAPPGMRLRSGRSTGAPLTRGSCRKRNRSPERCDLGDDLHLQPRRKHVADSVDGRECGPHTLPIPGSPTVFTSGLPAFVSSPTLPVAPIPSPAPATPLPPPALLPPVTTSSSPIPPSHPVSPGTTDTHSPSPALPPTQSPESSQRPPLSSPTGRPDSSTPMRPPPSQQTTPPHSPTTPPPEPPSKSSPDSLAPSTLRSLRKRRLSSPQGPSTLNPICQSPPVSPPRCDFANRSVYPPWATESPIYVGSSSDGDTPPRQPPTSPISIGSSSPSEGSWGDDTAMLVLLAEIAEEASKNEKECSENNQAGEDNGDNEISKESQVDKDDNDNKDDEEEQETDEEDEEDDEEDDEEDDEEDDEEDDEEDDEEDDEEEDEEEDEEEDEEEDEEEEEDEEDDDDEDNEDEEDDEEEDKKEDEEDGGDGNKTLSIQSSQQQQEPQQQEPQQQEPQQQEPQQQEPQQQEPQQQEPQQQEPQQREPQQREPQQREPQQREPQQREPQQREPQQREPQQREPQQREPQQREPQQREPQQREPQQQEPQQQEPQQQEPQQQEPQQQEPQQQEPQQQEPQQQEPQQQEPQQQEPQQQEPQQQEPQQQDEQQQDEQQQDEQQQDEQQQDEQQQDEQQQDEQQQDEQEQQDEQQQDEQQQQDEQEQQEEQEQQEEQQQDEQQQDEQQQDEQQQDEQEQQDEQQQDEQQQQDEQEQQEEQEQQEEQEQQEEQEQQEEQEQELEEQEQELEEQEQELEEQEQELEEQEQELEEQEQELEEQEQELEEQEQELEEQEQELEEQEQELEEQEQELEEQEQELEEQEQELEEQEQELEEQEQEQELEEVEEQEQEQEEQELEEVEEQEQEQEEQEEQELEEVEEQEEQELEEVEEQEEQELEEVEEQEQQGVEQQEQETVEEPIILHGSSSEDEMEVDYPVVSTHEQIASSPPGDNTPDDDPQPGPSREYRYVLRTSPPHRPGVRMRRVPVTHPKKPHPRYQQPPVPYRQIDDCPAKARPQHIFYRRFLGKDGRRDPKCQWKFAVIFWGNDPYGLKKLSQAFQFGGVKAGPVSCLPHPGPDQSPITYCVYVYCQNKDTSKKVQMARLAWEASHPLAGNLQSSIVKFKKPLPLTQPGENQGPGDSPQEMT
The depositor's hits bear a star; u = inconclusive; x = not tested or not shown; & = joins results of further samples.

Each structure is followed by: Calb FLC, Vif TR-FRET, T cruzi inh, A1 inh, RanGTP-Impb inh, Beta apoptosis, AF4-AF9 inh, LANA-H2A inh
1. O=C(CNC(=S)N(Cc1ccccc1)Cc1cccnc1)NCCN1CCOCC1
  -27, u, -18, 1.1, 3.4, 1, -0.2, -2.8
2. COc1ccc(S(=O)(=O)NNC(=O)c2csc(-n3nc(C)cc3C(F)(F)F)n2)cc1OC
  5, 6%, 4, 0.3, 3.1, 1, x, -2.8
3. COC(=O)c1ccc(C)c(N(CCO)CCO)c1
  -17, u, x, 0.1, 3.6, -4, x, 3.5
4. CCN(CC(=O)NCc1ccc(F)cc1)c1ccc(S(C)(=O)=O)cc1[N+](=O)[O-]
  16, -13%, 8, 0.4, 5.3, -3, 0.9, -5.5
5. O=C(CSc1cccs1)Nc1ccc2ccccc2c1
  16, 4%, 4, 0.0, 0.8, 3, x, -0.8
6. O=C(CCCOc1ccccc1)N1CCN(c2ccccc2)CC1
  12, 2%, 0, -2.5, 1.6, 0, x, 6.4
7. CC(=O)NCC(=O)OCC(=O)c1ccccc1
  -1, 2%, -28, 0.1, -1.0, -6, -32, 2.7
8. Cc1nc(NNC(=O)c2ccccc2)cc(-c2ccccc2)n1
  0, -3%, -4, 0.5, -0.6, 6, x, 4.0
9. Cc1cc(C)c(C)c(OCC(=O)N2CCN(c3ccccn3)CC2)c1
  7, 0%, 8, 0.2, 3.3, -2, -6.1, -2.7
10. Cc1ccc(C)c(S(=O)(=O)NCc2ccc(C(=O)N3CCN(C)CC3)cc2)c1
  15, 32%, x, 1.4, 0.1, -3, x, 0.8
11. CCOC(=O)N1CCC(NC(=O)CN(c2ccc(C(C)C)cc2)S(=O)(=O)c2c(C)nn(C)c2C)CC1
  4, x, 12, -1.0, 1.4, 10, 0.1, -1.0
12. CCCN1C2CCCC1CC(NC(=O)c1cccc(Cl)c1)C2 (stereo not drawn)
  7, x, 13, -1.3, -1.1, 1, -8.4, 2.2
13. O=C(Nc1cccnc1)c1ccc(COCC(F)(F)F)cc1
  3, 7%, -4, -1.6, 6.4, 3, u, 4.0
14. O=C(CSc1nnc(Cc2ccccc2)n1Cc1ccccc1)NCc1ccco1
  20, 8%, 3, 0.7, -1.1, -3, x, 2.6
15. C/C(=N\Nc1nc(C)cc(-c2ccccc2)n1)c1ccccc1
  6, 7%, 19, -0.6, 1.4, 82*, -6.4, 1.8
16. N#CC1(NC(=O)COC(=O)CSc2ccc(F)cc2)CCCCC1
  0, 5%, -3, 0.5, -0.3, 5, 0.2, -1.9
17. COc1ccc(S(=O)(=O)Nc2ccc(O)c3ccccc23)cc1
  -20, u, -26, -0.7, -4.6, 124*, x, 1.3
18. Cc1ccc2c(c1)c(C)c(C)n2CC(O)Cn1nc(C)cc1C (stereo not drawn)
  16, 2%, 1, 0.2, 1.2, -4, x, -6.4
19. Cc1cc(C)cc(NC(=O)/C(C#N)=C/c2cn(CC(=O)NCc3ccco3)c3ccccc23)c1
  1, 5%, -34, 17*, 82*, 101*, x, 1.4
20. O=C(Nc1cc(N2CCOCC2)ncn1)NC1(C(F)(F)F)Oc2ccc(Cl)cc2O1 (stereo not drawn)
  2, 6%, -8, 0.3, -0.2, -3, x, -2.9
21. COC(=O)c1ccccc1NC(=O)CN1C(=O)NC2(CCCCCCC2)C1=O
  x, 10%, x, -0.4, x, -2, -0.6, 1.2
22. Cc1ccccc1NC(=O)COC(=O)c1cccnc1
  -4, x, -12, 0.9, -2.3, -4, -0.3, 0.1
23. CC(C)CCN(C(=S)Nc1cccc(C(F)(F)F)c1)C(C)c1ccccn1 (stereo not drawn)
  6, -7%, 0, -0.3, u, -1, -2.7, -0.8
24. CCOc1cccc2sc(N(CCN(C)C)C(=O)c3ccc(Br)s3)nc12
  -2, 7%, 10, 0.9, -3.8, 0, -1.5, 6.5
25. Cc1ccc(C(C)C)cc1OCC(=O)Nc1ccc(N2CCCCC2)cc1
  -3, 3%, 63*, 0.1, -1.3, 0, -6.9, -7.4
26. CCOC(=O)c1cc2c(=O)n3ccccc3nc2n(Cc2ccco2)c1=NC(=O)c1ccccc1OCC
  19, 25%, 20, -0.1, 0.6, -3, -3.7, 1.2
27. CCOc1ccc(OCC(=O)Nc2ccc(OC)cc2[N+](=O)[O-])cc1
  -23, x, -12, 0.7, u, -4, -1.0, -2.2
28. O=C(c1ccc(Br)o1)N1CCC(c2nc3ccccc3[nH]2)CC1
  -6, 0%, 3, 1.1, u, 5, -0.4, x
29. CC1(C)S[C@@H]2[C@H](NC(=O)[C@H](N)c3ccccc3)C(=O)N2[C@H]1C(=O)O
  1&-2, u, -11&-20, 0.1&0.1, 6.5&0.5, -2, 3.5&-0.5, 1.5&1.8
30. COCCn1c(SCC(=O)Nc2cccc(C(=O)OC)c2)nc2ccccc2c1=O
  -4, 3%, 7, -0.3, -1.3, 2, x, -3.0
31. Cc1coc2c1c(C)cc1oc(=O)c(Cc3ccccc3)c(C)c12
  u, -5%, -1, 0.2, -0.7, -2, -3.1, -9.2
32. Cc1cc(C(C)(C)C)ccc1OCC(=O)N/N=C\c1c(C)n(C)n(-c2ccccc2)c1=O
  8, x, -5, -0.8, 6.1, -6, -0.1, 3.6
33. COc1ccc(-c2nc(SC(CC(=O)NCCN3CCOCC3)c3cccs3)n[nH]2)cc1 (stereo not drawn)
  12, -12%, -7, -0.5, u, -4, 0.0, -1.6
34. CC(O)c1ccc(-n2cnnn2)cc1 (stereo not drawn)
  3, -11%, -5, 0.3, -1.4, -3, -2.6, -0.6
35. Cc1ccc(-n2nc(C(=O)N3CCOCC3)cc2-c2ccc(Cl)cc2)cc1
  5, -7%, 4, 0.5, -2.0, -1, x, -0.7
36. COc1ccc2nc(NC3=NC(C(=O)Nc4ccc(C)cc4)CC(=O)N3)nc(C)c2c1 (stereo not drawn)
  4, 30%, 3, -0.5, 4.2, 1, x, 3.1
37. CC(C)c1cc(NCc2ccccn2)n2c(nc3ccccc32)c1C#N
  9, x, 17, -0.5, 51*, 18, -4.9, 6.2
38. CN(C)c1ccnc2sc(C(=O)c3ccccc3)c(N)c12
  -42, -3%, 22, -1.6, u, -2, 6.0, -6.3
39. c1ccc2nc(-c3ccc(N4CCOCC4)cc3)ccc2c1
  -11, -10%, 11, x, -2.5, 4, x, 3.2
40. Cc1nnc(NC(=O)c2ccc(F)c(S(=O)(=O)N3CCOCC3)c2)s1
  x, -5%, x, -0.4, x, 2, 3.7, -2.9
41. CCSC1=C(C#N)C2(CCCCC2)C(C#N)=C(N)N1
  -7, 4%, -3, 0.4, 0.4, 1, x, 3.7
42. Cn1nc([N+](=O)[O-])c2c(-c3nc4ccccc4s3)c(N)n(C3CCCCC3)c2c1=O
  -17, 6%, 11, -0.5, -2.9, -4, x, -0.1
43. CC(C)=C1C2CCC1C1C(=O)N(c3ccc4c(c3)OCO4)C(=O)C21 (stereo not drawn)
  1, 15%, 3, 0.1, -0.9, -1, 0.7, 2.5
44. Cc1ccc(CNC(=O)CCC2CCCN(Cc3ccc4cccc(F)c4n3)C2)o1 (stereo not drawn)
  3, 21%, 61*, 0.7, -2.2, -8, 4.4, -3.9
45. CC(C)c1ccc(NC(=O)CN2C(=O)COc3ccc(S(=O)(=O)N4CCOCC4)cc32)cc1
  1, x, -5, 0.4, 0.8, 2, -0.6, -1.5
46. COC(=O)CNC(=O)c1ccc(C)s1
  -2, -4%, 1, 0.7, 2.3, -1, x, 4.4
47. O=C(COC(=O)c1cc(S(=O)(=O)N2CCOCC2)ccc1F)NC1CC1
  x, x, x, -0.1, x, -2, 1.3, 8.7
48. CC(C)CNC(=S)NNC(=O)CC(C)O (stereo not drawn)
  -17, 1%, -12, -0.5, -0.6, -2, -0.8, -1.4
49. COc1cc(C(=O)N2CCN(C(=O)C(Cc3cc(C)ccc3C)NC(C)=O)CC2)cc(OC)c1OC (stereo not drawn)
  -7, 13%&-10%, -4, 0.5, -4.0, 0, x, 5.2
50. CN1CCN(C(=O)CCC(=O)c2ccc(F)cc2)CC1
  5, 5%, 1, 1.6, 0.2, -3, x, -6.3
51. Cc1ccc([N+](=O)[O-])cc1-c1ccc(/C=N/NC(=O)CN2CCOCC2)o1
  -5, x, -8, 0.0, -0.8, -8, 3.3, 4.0
52. NC(=O)CC(NC(=O)c1ccccc1)c1ccc(NCCN2CCOCC2)c([N+](=O)[O-])c1 (stereo not drawn)
  4, x, 0, 0.7, 4.5, -2, -4.0, 1.3
53. Nc1ncnc2c1ncn2[C@@H]1O[C@H](CNCC#Cc2ccccc2)[C@@H](O)[C@H]1O
  x, 0%, x, -0.9, x, -6, x, 3.1
54. CC(C)C[C@@H](CSc1ccc(Br)cc1)N1CCN(CC(C)C)CCC1=O
  3, x, 23, 0.9, u, -11, u, -0.3
55. O=C(c1cc(=O)[nH]c2ccccc12)N1CCc2ccccc2C1
  0, -3%, -15, 0.2, 1.5, -4, -2.7, 3.2
56. CN1CCN(C(CNC(=O)C(=O)NC2CCCC2)c2ccc(F)cc2)CC1 (stereo not drawn)
  3, -2%, 23, 0.7, -0.2, 0, 0.1, 1.4
57. COc1nc(N2CCOCC2)nc(-n2cccc2)n1
  11, -1%, -11, -0.9, -5.3, -3, x, -0.7
58. CCOC(=O)/C=C1\NC(C)(C)Cc2cc(OC)c(OC)cc21
  2, -2%, 0, -0.6, -1.5, -2, -1.8, -1.3
59. CN(CC(=O)NCCc1ccc(S(N)(=O)=O)cc1)Cc1ccc(Cl)cc1Cl
  4, 5%, 4, 0.6, -2.3, 2, 0.3, 4.6
60. CCN1CCN(C(=O)CCN2C(=O)COc3ccc(C)cc32)CC1
  10, 1%, -12, -0.9, 2.5, -8, x, -1.0
61. COc1ccc(Cl)cc1NC(=O)CN1C(=O)NC(C)(Cc2ccc(OC)c(OC)c2)C1=O (stereo not drawn)
  x, x, x, 0.5, x, 0, 1.7, -2.3
62. CCn1c(CCNC(=O)c2cccs2)nnc1SCC(=O)c1ccc(OC)cc1
  -13, 1%, -13, 0.7, u, 5, x, 0.8
63. CCc1nn2cc(C(=O)c3cc(C)ccc3O)cnc2c1-c1ccc(F)cc1
  6, -1%, 4, 0.3, 1.1, 6, x, x

Compound activity (PubChem BioAssay)
